2A StopGo: FMDV 2A StopGo reporter, luciferase signal. human cells with a luciferase reporter of 2A StopGo recoding; control for the full effect not named in the record. Potency, µM (doses to about 57.9 µM), for the others: top-dose signal change, negative = less light. 410,000 compounds, 1.2% hits; active = well fitted falling curve with a large enough effect; inconclusive = small, poorly fitted or top-dose-only effect; inactive = no such curve, though single readings can be large or run the other way; tested in HEK293T cells; note: % is set by controls: 0 for no effect and ±100 for the full control effect; nearly all actives have a fitted effect of over 45% in size; luciferase light after 4 h
NS1 inh: influenza NS1 inhibition; S. cerevisiae slowed by influenza A NS1, growth recovery by OD600; Potency, µM (titrated, usually from 46.1 µM), for the others: at the highest dose activity, positive = more growth; 270,000 compounds, 0.4% hits; active means well fitted rising curve with a large enough effect; inconclusive means small, poorly fitted or top-dose-only effect; inactive means no such curve, though single readings can be large or run the other way; note: nearly all actives have a fitted effect of over 50% in size
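Compounds were scored for reversing the slow growth caused by influenza A NS1 in S. cerevisiae, measured by optical density at 600 nm. Assay medium contained 2% galactose at pH 6.0; NS1-free yeast of the same strain were the positive control.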
RE007 growth inh: less growth of the S. pombe RE007 Vpr strain | S. pombe RE007 Vpr strain, BacTiter-Glo ATP luminescence, 24 h; control for the full effect not named in the record | Potency, µM (series often up to 92.2 µM), for inactives: at the highest dose activity change, negative = less growth | 360,000 compounds, 0.21% hits; active = well fitted falling curve with a large enough effect; inconclusive = small, poorly fitted or top-dose-only effect; inactive = no such curve, though single readings can be large or run the other way;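 note: % is set by controls: 0 for no effect and ±100 for the full control effect; nearly all actives have a fitted effect of over 50% in size; the assay follows cell death caused by Vpr and the record does not say whether a fall means rescue or toxicity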
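Fission yeast RE007 carrying one integrated HIV-1 vpr copy, seeded at OD 0.01 in PMG+AL medium with 23 nL pinned compound. Grown 24 h at 30 degrees; viability read by BacTiter-Glo luminescence after 5 min.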
SARS PLpro yeast: SARS-CoV PLP inhibition in yeast. Potency, µM (doses to about 32.9 µM), for inactives: top-dose activity, positive = growth rescue. 330,000 compounds, 0.19% hits. AID 485353. S. cerevisiae expressing SARS-CoV PLpro, growth rescue; control for the full effect not named in the record; active means well fitted rising curve with a large enough effect; inconclusive means small, poorly fitted or top-dose-only effect; inactive means no such curve, though single readings can be large or run the other way; note: 0% is about no effect; nearly all actives have a fitted effect of over 55% in size; growth read by luminescence after 48 h
Lassa entry inh: inhibitors of Lassa virus binding or cell entry | Lassa virus pseudotype entry inhibition, cell reporter; control for the full effect not named in the record | Potency, µM (titrated, usually from 37.9 µM), for inactives: at the top dose activity change, negative = inhibition, usual class: inhibitors | 300,000 compounds, 1.2% hits; active means well fitted inhibition curve with a large enough effect; inconclusive means small, poorly fitted or top-dose-only effect, or effect the other way; inactive means flat fitted curve, though single readings scatter; tested in HEK293 cells; note: % is set by controls: 0 for no effect and ±100 for the full control effect; nearly all actives have a fitted effect of over 50% in size; luciferase read-out
Cruzain Triton: inhibitors of Trypanosoma cruzi cruzain with detergent; purified cruzain, Z-FR-AMC fluorescence, 0.01% Triton; Potency, µM, without a hit: max response, negative = inhibition, actives largely listed as inhibitors; 200,000 compounds, 0.43% hits;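 note: plate controls were neutral wells for no effect and buffer without enzyme for full effect; nearly all actives have a fitted effect of over 40% in size; top concentration of the series not given in the record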
Target sequence (P25779 123-467 limits assumed): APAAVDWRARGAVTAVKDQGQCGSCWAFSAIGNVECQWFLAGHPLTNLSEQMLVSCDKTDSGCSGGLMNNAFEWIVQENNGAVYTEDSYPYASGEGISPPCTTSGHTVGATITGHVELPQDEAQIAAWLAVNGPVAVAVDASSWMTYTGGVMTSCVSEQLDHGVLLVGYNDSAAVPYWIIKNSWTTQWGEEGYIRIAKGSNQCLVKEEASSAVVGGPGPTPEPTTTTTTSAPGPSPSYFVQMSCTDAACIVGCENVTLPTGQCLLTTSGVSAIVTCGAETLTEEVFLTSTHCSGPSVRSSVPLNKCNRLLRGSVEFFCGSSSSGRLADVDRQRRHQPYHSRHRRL
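Detergent-containing arm of a paired screen for aggregation-based inhibition: 0.01% Triton X-100 present. Cruzain at 1.5 nM cleaved 2 uM Z-FR-AMC at pH 5.5 with 5 mM DTT; AMC fluorescence gain over 60 s measured activity.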
Cruzain inh noDet: cruzain (T. cruzi) inhibition without detergent; P25779; 200,000 compounds, 2.3% hits; purified cruzain, Z-FR-AMC fluorescence, no detergent; Potency, µM, for the others: max response, negative = inhibition, usual class: inhibitors;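 note: plate controls were enzyme without inhibitor for no effect and buffer without enzyme for full effect; nearly all actives have a fitted effect of over 40% in size; top concentration of the series not given in the record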
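Purified cruzain at 1.5 nM, pre-incubated 15 min with compound at room temperature in 100 mM sodium acetate pH 5.5, 5 mM DTT, 0.00005% Triton X-100. Reaction started with 2 uM Z-FR-AMC; AMC fluorescence increase over 60 s gives rate.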
Marburg entry inh: Marburg virus entry inhibition; 300,000 compounds, 1.8% hits; Marburg virus pseudotyped entry inhibition, cell reporter; control for the full effect not named in the record; about a third of the inactives were read at about 46 µM; Potency, µM (series often up to 37.8 µM), for inactives: at the highest dose activity change, negative = inhibition, most hits filed as inhibitors; AID 540276; active = well fitted inhibition curve with a large enough effect; inconclusive = small, poorly fitted or top-dose-only effect, or effect the other way; inactive = flat fitted curve, though single readings scatter; tested in HEK293 cells; about a fifth of its hits are not listed in these tables; note: % is set by controls: 0 for no effect and ±100 for the full control effect; luciferase read-out
Numbers without * were called inactive; u = inconclusive; x = no result given; & = joins results of further samples; [ ] = another dose, or the depositor's remark. Unless noted, calls come from the whole dose curve; as a rule, active = well fitted curve in the direction sought with a large enough effect; inconclusive = small, poorly fitted or top-dose-only effect, or another doubt; inactive = no such curve, though single readings can be large; an effect the other way counts as inactive or inconclusive. Potency is the fitted concentration of half-maximal effect. This is a random part of the collection; overall some 4.6% were active at least once.

molecule | 2A StopGo | NS1 inh | RE007 growth inh | SARS PLpro yeast | Lassa entry inh | Cruzain Triton | Cruzain inh noDet | Marburg entry inh
COc1ccc(/C=C(\C)C(=O)c2c(C)cc(C)[nH]c2=O)cc1 | 7% | x | 3% | x | -2% | x | x | u
CCC(=Nc1ccc(N)cc1)C1=C(O)C(C(=O)OC)C(C)(C)CC1=O (stereo not given) | x | -39% | 1% | 6% | 8% | 11% | -30% | 6%
Cc1cccc2sc(NC(=O)CNS(=O)(=O)c3ccc(Br)s3)nc12 | u | 3% | 4% | -5% | -9% | 1.0% | 3% | 7%
COc1ccccc1-c1nc2cc3ccccc3cc2nc1-c1ccccc1OC | -9% | 4% | -13% | 0% | u | -4.0% | -24% | -6%[46.1 µM]
Cc1ccccc1OCC(=O)Nc1nc(-c2ccncc2)cs1 | 28µM* | x | 6% | 2% | -22% | x | x | u
CCc1ccccc1NC(=O)c1sc2nc3c(cc2c1N)CN(Cc1ccccc1)CC3 | u | x | x | x | -14%[46.1 µM] | -7.1% | -18% | u
CCN(C(=O)Cn1ccc(C(F)(F)F)n1)c1c(N)n(Cc2ccccc2)c(=O)[nH]c1=O | -27% | x | 2% | 1% | 4% | x | x | u
CCOc1ccc(S(=O)(=O)n2ccc(C)n2)c2ccccc12 | -17% | 1% | 9% | 2% | -14% | 0.9% | 4% | -1%
O=C(c1ccc(NS(=O)(=O)c2cccc(C(F)(F)F)c2)cc1)N1CCCC1 | 17% | 6% | 7% | 12% | -12% | x | x | u
Cn1cc([N+](=O)[O-])c(C(=O)N2CCCCCC2)n1 | -21% | 18% | 5% | 24% | x | x | x | x
C[C@]12CCC(=O)C=C1CCC1C2CC[C@@]2(C)C1CCC21OCCO1 (stereo not given in full) | u | x | 5% | -6% | 8%[46.1 µM] | x | x | u
CCn1c(SCC(=O)Nc2nnc(C)s2)nc2c(c1=O)SC(C)C2 (stereo not given) | 0% | -5% | 3% | -13% | x | -3.0% | -12% | x
COC(=O)c1ccc(C(=O)OC)c(NC(=O)CN(C)Cc2ccccc2)c1 | -9% | -20% | 10% | 1% | u | -5.5% | -8% | -14%[46.1 µM]
CCC(Cc1ccccc1)NC(=O)Cn1ncc2c3ccccc3n(Cc3ccc(F)cc3)c2c1=O (stereo not given) | -6% | x | x | x | 2%[46.1 µM] | -3.9% | -4% | -21%[46.1 µM]
CC(O)CNC1c2ccccc2CC1O (stereo not given) | -4% | x | -12% | x | 8%[46.1 µM] | x | x | -4%[46.1 µM]
CCn1c(SCC(=O)N/N=C(\C)c2ccncc2)nnc1-c1ccccc1 | -10% | 5% | 4% | 0% | 1% | x | x | 6%[46.1 µM]
N#C/C(=C\c1coc2ccccc2c1=O)C(N)=S | 4% | x | 14% | 2% | 1% | x | x | 12%[46.1 µM]
Nc1cc(=O)[nH]c(SCC(=O)N2CCCc3ccccc32)n1 | 6% | 18% | 10% | -9% | 19% | -3.6% | -12% | -19%
CC1(C)CC(=O)C(C=NCc2ccc3c(c2)OCO3)=C(O)C1 | 0% | 1% | 7% | 1% | -8% | -3.4% | -11% | u
Cc1ccc(C(C)C)cc1OCCCCN1CCCC1 | -7% | 5% | -10% | -16% | u | 1.4% | -11% | u
C/C=C/c1ccc(OCC(=O)Nc2ccc(OC)c(OC)c2)c(OC)c1 | -19% | x | -10% | -5% | -14%[46.1 µM] | x | x | u
COc1ccccc1CN(CC(=O)NCc1ccc2c(c1)OCO2)C(=O)c1csnn1 | 5% | -1% | 6% | 1% | 14%[46.1 µM] | x | x | u
CC(Sc1nc2ccccc2s1)C(=O)N(C)Cc1ccccc1 (stereo not given) | -5% | -27% | -5% | -2% | u | x | x | -4%[46.1 µM]
CCCCn1nnc(NC(=O)COc2ccc(Cl)c(C)c2)n1 | 6% | -46% | 6% | -1% | -13% | -2.8% | -13% | u
Cn1ccnc1C1CCCCN1Cc1nc(-c2ccc(Cl)cc2)no1 (stereo not given) | -14% | -6% | -7% | 1% | x | x | x | x
Cc1cc(NC(=O)/C(C#N)=C/c2ccc(-c3ccc(SC(F)F)cc3)o2)n(-c2ccccc2)n1 | 3% | 0% | 5% | 18% | x | -1.8% | -3% | 1%
O=C(NCCO)/C(=C\c1ccc2c(c1)OCO2)NC(=O)c1ccc(Br)cc1 | -9% | 0% | -17% | 5% | u | -2.9% | 2% | 14%
CCCN1CCN(C(=O)CCNC(=O)Cn2cnc3ccccc3c2=O)CC1 | 9% | -24% | -10% | -4% | -1%[46.1 µM] | x | x | 1%[46.1 µM]
Cc1ccc(NC(=O)CN(C)S(=O)(=O)c2cnc[nH]2)c(C)c1 | 0% | -12% | 1% | -5% | x | x | x | x
Cc1c(NC(=S)NC(=O)c2ccc(-c3ccc(Cl)cc3)o2)cccc1C(=O)O | 26% | x | -1% | -1% | 15%[46.1 µM] | x | x | u
CCCNC(=O)c1ccccc1NC(=O)C1=CSCCO1 | -4% | 3% | -1% | -2% | x | x | x | x
COCCCNC(=O)c1cn(Cc2c(F)cccc2Cl)nn1 | 4% | 1% | 4% | 8% | 13% | 3.8% | 4% | -6%[46.1 µM]
COc1ccc(N2CC(NS(=O)(=O)c3ccc4ccccc4c3)CC2=O)cc1 (stereo not given) | -12% | x | -2% | 1% | u | x | x | -21%[46.1 µM]
O=C(NCC(c1ccco1)N1CCOCC1)c1ccc(F)c(F)c1 (stereo not given) | -8% | x | -7% | 2% | -5% | x | x | 8%[46.1 µM]
Cc1cc(C)c(S(=O)(=O)Nc2ccc(O)c(Sc3ncn[nH]3)c2)c(C)c1 | -10% | -8% | 11% | -7% | 0% | -2.5% | -1% | 3%
CCOC(=O)NC(=O)CSc1nc(C)cc(C(F)(F)F)c1C#N | 46% | -1% | 0% | -4% | 20% | -2.9% | 0% | 3%
CCn1c(SCC(=O)Nc2nc(C)cs2)nnc1C(C)NC(=O)c1ccccc1 (stereo not given) | -2% | -1% | 14% | 4% | -3% | -0.6% | 5% | u
Cc1cccc(-c2nc3c(cnn3-c3ccccc3)c(=O)n2-c2ccc(Br)cc2)c1 | 11% | x | x | x | 5%[46.1 µM] | -11% | -9% | x
C/C(N)=C(/C#N)C(=O)COC(=O)C(NS(=O)(=O)c1ccc(Cl)cc1)C(C)O (stereo not given) | -13%&9% | -9% | 12%&3% | 2% | 12%[46.1 µM] | 0.2% | -2% | 3%[46.1 µM]
CC(=O)c1c(C)[nH]c(C(=O)OCC(=O)NCCC(C)C)c1C | -26% | 7% | 4% | 2% | u | x | x | -10%[46.1 µM]
CCOC(=O)C1CCN(S(=O)(=O)c2ccc3c4c2CC(=O)N4CC(C)S3)CC1 (stereo not given) | u | 16% | 18% | -1% | x | x | x | x
Cc1ccc(N2CC(C(=O)N3CCCc4ccccc43)CC2=O)cc1 (stereo not given) | x | 2% | -6% | 3% | 1% | 1.9% | -9% | -3%
Cc1cccc(C(=O)Nc2ccc(C(=O)c3ccccc3)cc2)c1 | -26% | x | -17% | x | u | x | x | 12%[46.1 µM]
O=C(c1ccccc1)c1c[nH]c(C(=O)C(Cl)(Cl)Cl)c1 | -15% | 1% | 8% | 1% | -8%[46.1 µM] | x | x | 1%[46.1 µM]
COc1ccc(Cl)cc1S(=O)(=O)N1CCCC1 | x | 6% | -1% | 7% | u | 4.1% | u | -26%
Cc1ccc(S(=O)(=O)NN2C(=O)c3ccccc3NC2(C)C)cc1 | -19% | -9% | -1% | 23% | u | u | 5% | -22%
CSc1ccccc1NC(=O)CN(C)C(=O)CCc1c[nH]c2ccccc12 | 16% | 4% | 5% | -3% | 2%[46.1 µM] | x | x | u
CC(=O)CSc1nnc(NC(=O)CCc2ccccc2)s1 | 0% | -1% | 5% | -1% | -8% | 6.2% | u | -8%
Cc1cc(N2C(=O)C(O)=C(C(=O)c3cccs3)C2c2cccc(O)c2)no1 (stereo not given) | 7% | 8% | 5% | 2% | -2% | -7.0% | -2% | 8%

Sorted by length of the SMILES (descending): part of the list above
molecule | 2A StopGo | NS1 inh | RE007 growth inh | SARS PLpro yeast | Lassa entry inh | Cruzain Triton | Cruzain inh noDet | Marburg entry inh
Cc1cc(NC(=O)/C(C#N)=C/c2ccc(-c3ccc(SC(F)F)cc3)o2)n(-c2ccccc2)n1 | 3% | 0% | 5% | 18% | x | -1.8% | -3% | 1%
Cc1cc(C)c(S(=O)(=O)Nc2ccc(O)c(Sc3ncn[nH]3)c2)c(C)c1 | -10% | -8% | 11% | -7% | 0% | -2.5% | -1% | 3%
Cc1cc(N2C(=O)C(O)=C(C(=O)c3cccs3)C2c2cccc(O)c2)no1 (stereo not given) | 7% | 8% | 5% | 2% | -2% | -7.0% | -2% | 8%
CCn1c(SCC(=O)Nc2nc(C)cs2)nnc1C(C)NC(=O)c1ccccc1 (stereo not given) | -2% | -1% | 14% | 4% | -3% | -0.6% | 5% | u
CSc1ccccc1NC(=O)CN(C)C(=O)CCc1c[nH]c2ccccc12 | 16% | 4% | 5% | -3% | 2%[46.1 µM] | x | x | u
CCCN1CCN(C(=O)CCNC(=O)Cn2cnc3ccccc3c2=O)CC1 | 9% | -24% | -10% | -4% | -1%[46.1 µM] | x | x | 1%[46.1 µM]
CC(=O)c1c(C)[nH]c(C(=O)OCC(=O)NCCC(C)C)c1C | -26% | 7% | 4% | 2% | u | x | x | -10%[46.1 µM]
O=C(c1ccccc1)c1c[nH]c(C(=O)C(Cl)(Cl)Cl)c1 | -15% | 1% | 8% | 1% | -8%[46.1 µM] | x | x | 1%[46.1 µM]
CCOC(=O)NC(=O)CSc1nc(C)cc(C(F)(F)F)c1C#N | 46% | -1% | 0% | -4% | 20% | -2.9% | 0% | 3%
CCCNC(=O)c1ccccc1NC(=O)C1=CSCCO1 | -4% | 3% | -1% | -2% | x | x | x | x
